A1 inh – blocks A1 activity; caspase activation, % (concentration not given with the values); MEF A1-2A-BIM cells, caspase-Glo luminescence, 3 h; percent of clofoctol signal, DMSO as zero; actives 0.51% (n = 21,000);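 active = most replicate scores above 10, or exactly half above 10 with mean activity above 10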;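 note: effector caspase 3 and 7 activity cleaving a DEVD luciferin substrate; 50 nL library stock added to about 30 µL; numbers are from one replicate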
BJeLR viability – lowers viability of BJeLR cells; actives 0.64% (n = 30,000); AID 2275; BJeLR fibroblasts viability, CellTiterGlo ATP luminescence, 48 h; HRASV12, hTERT and SV40 LT/ST transformed; viability loss activity score, % (concentration not given with the values); in the data active = viability loss activity score above about 50%; about a fifth of its hits are not listed in these tables;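 note: higher score means fewer live cells and less ATP luminescence; stock transfer was 50 or 100 nL into about 30 µL; 0% = vehicle wells and 100% = a reference killing control; one replicate is shown; the record names a cut of 85%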
* hit, by the source's call; · = no result given. Only part of the results is shown; count on the stated rates, not on these rows.

SMILES | A1 inh | BJeLR viability
Cc1ccc(S(=O)(=O)Nc2ccc3c(c2)C(=O)N([C@H](C)CO)C[C@H](C)[C@H](CN(C)S(=O)(=O)c2cccs2)O3)cc1 | -0.3 | 1.2
Cc1ccc(C)c(-c2csc(NC(=O)CCCc3ccccc3)c2C(N)=O)c1 | -0.1 | 4.9
CN(CC(=O)NC1CCCC1)S(=O)(=O)c1ccc2c(c1)c(=O)n(C)c(=O)n2C | · | -1.0
Cc1ccc(CCNC(=O)c2coc3nc4ccccc4nc23)cc1 | -5.3 | -1.6
O=C(Nc1ncnc2oc(-c3ccccc3)c(-c3ccccc3)c12)c1ccccc1 | 0.2 | -0.5
COc1ccc(SCc2cc3c(F)c(F)c(F)c(F)c3o2)cc1 | 0.2 | -1.9
COc1ccc(S(=O)(=O)N(C)C[C@@H]2Oc3c(NC(=O)C4CCCCC4)cccc3C(=O)N([C@H](C)CO)C[C@@H]2C)cc1 | · | -0.4
O=C1NC2=C(C(=O)OC2)C(c2ccccc2)N1 (centres undefined) | · | -9.1
Cc1noc(C)c1NC(=O)N(C)C[C@H]1Oc2ccc(NS(=O)(=O)c3cn(C)cn3)cc2C(=O)N([C@@H](C)CO)C[C@@H]1C | 0.4 | 2.1
C[C@@H]1CN([C@@H](C)CO)C(=O)c2cccc(NS(=O)(=O)c3ccc(Cl)cc3)c2O[C@@H]1CN(C)S(C)(=O)=O | · | -6.7
CC(=O)O[C@H]1C[C@@]2(C)[C@@H](CC[C@H]3[C@@]4(C)C=CC(=O)[C@@H](C)[C@@H]4[C@H](OC(C)=O)C(=O)[C@@]32C)/C1=C(\CCC=C(C)C)C(=O)O | -1.0 | 5.4
Cc1ccnc(NCc2ccc(N(C)C)cc2)c1 | · | 1.9

Part of the list above, field by field.
Cc1noc(C)c1NC(=O)N(C)C[C@H]1Oc2ccc(NS(=O)(=O)c3cn(C)cn3)cc2C(=O)N([C@@H](C)CO)C[C@@H]1C
  A1 inh = 0.4; BJeLR viability = 2.1
C[C@@H]1CN([C@@H](C)CO)C(=O)c2cccc(NS(=O)(=O)c3ccc(Cl)cc3)c2O[C@@H]1CN(C)S(C)(=O)=O
  A1 inh = ·; BJeLR viability = -6.7
CC(=O)O[C@H]1C[C@@]2(C)[C@@H](CC[C@H]3[C@@]4(C)C=CC(=O)[C@@H](C)[C@@H]4[C@H](OC(C)=O)C(=O)[C@@]32C)/C1=C(\CCC=C(C)C)C(=O)O
  A1 inh = -1.0; BJeLR viability = 5.4
Cc1ccnc(NCc2ccc(N(C)C)cc2)c1
  A1 inh = ·; BJeLR viability = 1.9

Four of the entries above in order of the A1 inh value, largest number first:
SMILES	A1 inh
O=C(Nc1ncnc2oc(-c3ccccc3)c(-c3ccccc3)c12)c1ccccc1	0.2
Cc1ccc(C)c(-c2csc(NC(=O)CCCc3ccccc3)c2C(N)=O)c1	-0.1
CC(=O)O[C@H]1C[C@@]2(C)[C@@H](CC[C@H]3[C@@]4(C)C=CC(=O)[C@@H](C)[C@@H]4[C@H](OC(C)=O)C(=O)[C@@]32C)/C1=C(\CCC=C(C)C)C(=O)O	-1.0
Cc1ccc(CCNC(=O)c2coc3nc4ccccc4nc23)cc1	-5.3

Additional results follow:
SMILES | A1 inh | BJeLR viability
COc1cccc(CC2CC(=O)N(c3ccc4c(C)cc(=O)oc4c3)C2=O)c1 (centres undefined) | · | -0.5
Cc1ccc(-c2cc(C(F)(F)F)n3nc(C(=O)Nc4ccn(Cc5ccccc5)n4)cc3n2)cc1C | 0.2 | 1.6
Cc1ccc(N=C2SC3(CC3)C(=O)N2c2ccc(C)cc2)cc1 | 0.2 | 1.8
COc1ccc(S(=O)(=O)Nc2cccc3c2O[C@H](CN(C)S(=O)(=O)c2ccc(Cl)cc2)[C@@H](C)CN([C@@H](C)CO)C3=O)cc1 | · | 2.2
c1coc(-c2nnc(C3CCCCC3)o2)c1 | -0.2 | -4.0
COC(=O)/C=C1/C(=O)N/C(=N\c2nc(C)cc(C)n2)N1c1cccc(C)c1 | 0.9 | -1.5
CCOc1cc(C(=O)Nc2cc(Cl)ccc2OC)cc(OCC)c1OCC | -0.3 | 2.4
COc1ccc(NC(=O)Nc2ccc3c(c2)C(=O)N([C@H](C)CO)C[C@H](C)[C@@H](CN(C)Cc2ccc(Cl)c(Cl)c2)O3)cc1 | 0.0 | -2.5
COC(=O)c1cc(S(=O)(=O)N2CCN(c3cccc(C(F)(F)F)c3)CC2)cn1C | 0.5 | 4.7
COc1ccc(CN(C)C[C@@H]2Oc3c(NC(=O)Nc4ccc(F)cc4)cccc3C(=O)N([C@@H](C)CO)C[C@H]2C)cc1 | · | 2.3
CCc1cccc(CC)c1NC(=O)COc1ccccc1C(=O)N1CCOCC1 | 0.5 | -0.3
Cc1ccc(S(=O)(=O)Nc2ccc3c(c2)C(=O)N([C@H](C)CO)C[C@H](C)[C@@H](CN(C)S(=O)(=O)c2ccc(C)cc2)O3)cc1 | -0.2 | 3.0
c1ccc(-c2cc3ccsc3o2)cc1 | -1.7 | -1.6
Cc1ccc(Cn2c(SCc3cccc(C(F)(F)F)c3)nc3ccncc32)cc1 | -0.4 | 9.5
CCC(=O)c1cn(S(=O)(=O)c2ccc(C)cc2)c2ccccc12 | 0.5 | 25
O=S(=O)(c1ccccc1)N(CCO)Cc1ccccc1 | 0.2 | -1.8
Cc1ccc(S(=O)(=O)Nc2cccc3c2O[C@H](CN(C)Cc2ccc(Cl)c(Cl)c2)[C@H](C)CN([C@H](C)CO)C3=O)cc1 | · | 11
CCOC(=O)C1=C(c2ccccc2)Nc2ncnn2C1c1ccc(OCc2ccccc2)cc1 (centres undefined) | · | 2.5
O=C(CC1(O)C(=O)Nc2ccccc21)C1CC2C=CC1C2 (centres undefined) | 0.0 | -6.8
C[C@@H]1CN([C@@H](C)CO)C(=O)c2cccc(NC(=O)c3ccc(-c4nccs4)cc3)c2O[C@H]1CN(C)Cc1ccc2c(c1)OCO2 | · | -3.5
COC(=O)c1ccc(CSc2nc(-c3cccs3)nc3c2c(=O)n(C)c(=O)n3C)o1 | · | 1.9
C[C@@H]1CN([C@H](C)CO)C(=O)c2cc(NC(=O)Nc3cccc4ccccc34)ccc2O[C@@H]1CN(C)Cc1ccccc1 | 0.5 | -7.0
C[C@H](CO)N1C[C@H](C)[C@@H](CN(C)CC2CCCCC2)Oc2c(NS(=O)(=O)c3ccc(F)cc3)cccc2C1=O | · | 2.1
CO[C@H]1C[C@H](O[C@H]2[C@H](C)[C@@H](O[C@@H]3O[C@H](C)C[C@H](N(C)C)[C@@H]3OC(C)=O)[C@@H](C)C[C@]3(CO3)C(=O)[C@H](C)[C@@H](OC(C)=O)[C@@H](C)[C@@H](C)OC(=O)[C@@H]2C)O[C@@H](C)[C@@H]1OC(C)=O | -0.2 | 19
C[C@H](CO)N1C[C@H](C)[C@@H](CN(C)Cc2ccc(-c3ccccc3)cc2)Oc2ccc(NC(=O)NC3CCCCC3)cc2C1=O | -0.4 | -0.4
CCC1CSc2nc3ccsc3c(=O)n21 (centres undefined) | · | -1.9
C[C@H](CO)N1C[C@H](C)[C@H](CN(C)Cc2ccc3c(c2)OCO3)Oc2ccc(NC(=O)Nc3cccc4ccccc34)cc2C1=O | 0.8 | -1.4
C[C@@H]1CN([C@H](C)CO)C(=O)c2cccc(NC(=O)c3ccncc3)c2O[C@H]1CN(C)CC1CCCCC1 | · | -2.3
C/C=C1/[C@H](O[C@@H]2O[C@H](CO)[C@@H](O)[C@H](O)[C@H]2O)OC=C(C(=O)OC)[C@H]1CC(=O)OCCc1ccc(O)cc1 | 0.3 | -4.8
CCOC(=O)N1CCN(C(=O)CSCC(=O)Nc2nc(-c3cccs3)cs2)CC1 | -0.7 | 2.5
Cc1c(/C=N/O)sc2ccccc12 | 0.9 | -6.0
C[C@@H]1CN([C@H](C)CO)C(=O)c2cc(NC(=O)CCN3CCOCC3)ccc2O[C@H]1CN(C)Cc1ccc(-c2ccccc2)cc1 | 1.5 | 1.3
CCOC(=O)C(C)n1ncn2cccc2c1=O (centres undefined) | 2.5 | 1.3
CCN(C(=O)CCc1ccccc1)C1CCCCC1 | -0.2 | 0.4
O=C(OCC1=C[C@@H](O)[C@@H]2C=CO[C@@H](O[C@@H]3O[C@H](CO)[C@@H](O)[C@H](O)[C@H]3O)[C@H]12)c1ccc(O)cc1 | -0.3 | -4.6
Cc1ccc(S(=O)(=O)Nc2cccc3c2O[C@@H](CN(C)Cc2ccc(Oc4ccccc4)cc2)[C@H](C)CN([C@H](C)CO)C3=O)cc1 | · | -2.0
C[C@@H]1CN([C@H](C)CO)C(=O)c2cccc(NC(=O)C3CCOCC3)c2O[C@@H]1CN(C)S(=O)(=O)c1ccc(Cl)cc1 | · | 1.2
CC(C)NC(=O)Nc1ccc2c(c1)C(=O)N([C@H](C)CO)C[C@H](C)[C@@H](CN(C)S(=O)(=O)c1cn(C)cn1)O2 | -0.4 | 1.8
COc1cccc(-c2cc(C(=O)N3CCCCC3C)no2)c1 (centres undefined) | · | -2.5
COc1ccc(NC(=O)N(C)C[C@@H]2Oc3ccc(N(C)C)cc3C(=O)N([C@@H](C)CO)C[C@H]2C)cc1 | 0.1 | 1.1
CC(=O)Nc1cc(C(=O)c2ccc(Cl)cc2)nn(-c2ccccc2)c1=O | -0.3 | 2.6
CCCN1CCC(N2CCCC(C(=O)N(C)CCc3ccc(OC)c(OC)c3)C2)CC1 (centres undefined) | 0.7 | -2.3
C[C@@H]1CN([C@@H](C)CO)C(=O)c2cccc(NS(=O)(=O)c3ccc(F)cc3)c2O[C@@H]1CN(C)CC1CC1 | · | 2.0
Cn1c(=O)c2c(SCc3cccc(C(F)(F)F)c3)nc(-c3ccco3)nc2n(C)c1=O | · | 1.8
Cc1noc(C)c1NC(=O)Nc1ccc2c(c1)C(=O)N([C@H](C)CO)C[C@@H](C)[C@H](CN(C)C(=O)Nc1ccccc1)O2 | 0.9 | 0.1
COC(=O)c1ccn(COc2ccccc2Cl)n1 | 0.0 | -10
CCOC(=O)c1[nH]nc2c1COc1ccccc1-2 | · | -3.8
C[C@@H]1CN([C@H](C)CO)C(=O)c2cc(NS(=O)(=O)c3ccc(F)cc3)ccc2O[C@H]1CN(C)Cc1ccc(C(=O)O)cc1 | -0.2 | -6.1
CCC(=O)N1CCc2cc(S(=O)(=O)CCC(=O)NCc3cccs3)ccc21 | · | -0.5
COCc1nnc(NC(=O)/C=C/c2cc(OC)c(OC)c(OC)c2)s1 | -0.2 | -4.6
CCCCN(C(=O)c1cn(-c2ccc(OC)cc2)c(=O)c2ccccc12)C1CCN(C(C)=O)CC1 | -0.4 | -4.1
C[C@H](CO)N1C[C@H](C)[C@H](CN(C)Cc2ccc(Oc3ccccc3)cc2)Oc2c(NC(=O)C3CCOCC3)cccc2C1=O | · | 0.2
C[C@@H]1CN([C@@H](C)CO)C(=O)c2cccc(NS(=O)(=O)c3cccs3)c2O[C@@H]1CN(C)C(=O)Nc1ccccc1 | · | 2.5
C=C1CC[C@@H]2C(C)(C)C[C@@H](O)C[C@@]2(C)[C@@H]1CC/C(=C/C(=O)OC)COC(C)=O | 0.1 | 0.9
C[C@@H]1CN([C@@H](C)CO)C(=O)c2cccc(NS(=O)(=O)c3ccccc3)c2O[C@@H]1CN(C)S(=O)(=O)c1ccc(F)cc1 | · | -6.7
CC(Oc1ccccc1-c1ccccc1)c1n[nH]c(=S)n1-c1ccccc1 (centres undefined) | 0.0 | 0.4
C[C@@H]1CN([C@@H](C)CO)C(=O)c2cc(NS(=O)(=O)c3cn(C)cn3)ccc2O[C@H]1CN(C)Cc1ccc(Oc2ccccc2)cc1 | 0.2 | -0.7
CNC[C@@H]1Oc2ccc(NS(=O)(=O)c3ccc(C)cc3)cc2C(=O)N([C@@H](C)CO)C[C@@H]1C | -0.2 | -4.1
Cc1cc(C(=O)Nc2cccc3c2O[C@@H](CN(C)S(=O)(=O)c2ccccc2)[C@@H](C)CN([C@@H](C)CO)C3=O)n(C)n1 | · | -1.4
C[C@H]1CN([C@@H](C)CO)C(=O)c2cc(NC(=O)Nc3cccc4ccccc34)ccc2O[C@@H]1CN(C)C(=O)Nc1cccc2ccccc12 | -0.6 | 1.9

(more compounds)
SMILES | A1 inh | BJeLR viability
C[C@@H]1CN([C@@H](C)CO)C(=O)c2cc(NC(=O)Cn3cnnn3)ccc2O[C@@H]1CN(C)Cc1ccc(C(=O)Nc2ccccc2N)cc1 | · | 6.1
Cc1cc(C)c(C#N)c(SC2CCCCC2=O)n1 (centres undefined) | -0.1 | 1.9
COC(OC)c1ccc(C#N)c(SCc2ccc(C)cc2)n1 | 0.2 | 2.7
CCC(C)c1ccc(OCCCN2CCN(C)CC2)cc1 (centres undefined) | · | 17
Cc1c(-c2ccccc2)oc2c(C(=O)OCCN3CCCCC3)cccc2c1=O | -0.6 | -4.7
CC1CCCC(n2c(=S)[nH]c3ccccc3c2=O)C1C (centres undefined) | -0.5 | -2.6
Cc1noc(C)c1NC(=O)N(C)C[C@H]1Oc2ccc(NC(=O)Nc3ccccc3)cc2C(=O)N([C@H](C)CO)C[C@@H]1C | 0.8 | -1.1
CCOC(=O)c1[nH]c(=O)[nH]c1Cn1nc(C)cc1C | 1.0 | -4.6
COc1ccc(NC(=O)N(C)C[C@H]2Oc3ccc(NS(C)(=O)=O)cc3C(=O)N([C@H](C)CO)C[C@@H]2C)cc1 | -0.5 | 1.9
Cc1noc(C)c1NC(=O)N(C)C[C@H]1Oc2c(NC(=O)Nc3ccccc3)cccc2C(=O)N([C@H](C)CO)C[C@H]1C | · | -0.8
COc1ccc(CN(C)C[C@H]2Oc3ccc(NC(=O)Nc4c(C)noc4C)cc3C(=O)N([C@@H](C)CO)C[C@H]2C)cc1 | -0.4 | -4.6
C[C@H](CO)N1C[C@H](C)[C@H](CN(C)Cc2ccc(C(F)(F)F)cc2)Oc2c(NC(=O)c3nc4ccccc4s3)cccc2C1=O | · | -7.0

Screening data from PubChem.
